Screening results: PubChem, National Center for Advancing Translational Sciences (NCATS)
SARS PLP yeast = SARS-CoV PLP inhibition in yeast; S. cerevisiae expressing SARS-CoV PLpro, growth rescue; control for the full effect not named in the record; Potency, µM (top dose mostly 32.9 µM), inactives show top-dose activity, positive = growth rescue; actives 0.19% (n = 330,000); AID 485353; active means well fitted rising curve with a large enough effect; inconclusive means small, poorly fitted or top-dose-only effect; inactive means no such curve, though single readings can be large or run the other way; further: 0% is about no effect; nearly all actives have a fitted effect of over 55% in size; growth read by luminescence after 48 h
Cruzain Triton = cruzain (T. cruzi) inhibition with detergent; Potency, µM, without a hit: max response, negative = inhibition, most hits filed as inhibitors; P25779; purified cruzain, Z-FR-AMC fluorescence, 0.01% Triton; AID 1478; actives 0.43% (n = 200,000);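 further: plate controls were neutral wells for no effect and buffer without enzyme for full effect; nearly all actives have a fitted effect of over 40% in size; top concentration of the series not given in the record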
Target sequence (P25779 123-467 limits assumed): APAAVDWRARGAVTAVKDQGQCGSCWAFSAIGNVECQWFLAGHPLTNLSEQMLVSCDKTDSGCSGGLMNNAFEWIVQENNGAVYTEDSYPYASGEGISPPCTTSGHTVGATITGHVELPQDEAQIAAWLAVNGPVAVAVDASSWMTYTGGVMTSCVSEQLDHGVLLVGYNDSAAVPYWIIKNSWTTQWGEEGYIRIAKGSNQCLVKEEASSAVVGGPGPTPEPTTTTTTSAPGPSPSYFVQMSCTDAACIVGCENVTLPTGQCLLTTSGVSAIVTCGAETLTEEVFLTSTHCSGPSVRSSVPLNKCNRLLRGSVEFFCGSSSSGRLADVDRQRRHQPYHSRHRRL
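Purified cruzain (1.5 nM final) was preincubated with compounds for 15 min at room temperature in 100 mM sodium acetate pH 5.5, 5 mM DTT, 0.01% Triton X-100. Reaction started with 2 uM Z-FR-AMC; AMC fluorescence change over 60 s gave activity.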
2A StopGo = lowers the luciferase signal of an FMDV 2A StopGo reporter; human cells with a luciferase reporter of 2A StopGo recoding; control for the full effect not named in the record; Potency, µM (top dose mostly 57.9 µM), for inactives: at the highest dose signal change, negative = less light; actives 1.2% (n = 410,000); AID 1159524; active = well fitted falling curve with a large enough effect; inconclusive = small, poorly fitted or top-dose-only effect; inactive = no such curve, though single readings can be large or run the other way; tested in HEK293T cells; further: on the % scale 0 is the no-effect control and ±100 the full control effect; nearly all actives have a fitted effect of over 45% in size; luciferase light after 4 h
MARV entry inh = blocks Marburg virus binding to or entry into cells | Marburg virus pseudotyped entry inhibition, cell reporter; control for the full effect not named in the record; about a third of the inactives were read at about 46 µM | Potency, µM (titrated, usually from 37.8 µM), inactives show at the top dose activity change, negative = inhibition, usual class: inhibitors | actives 1.8% (n = 300,000) | AID 540276; active = well fitted inhibition curve with a large enough effect; inconclusive = small, poorly fitted or top-dose-only effect, or effect the other way; inactive = flat fitted curve, though single readings scatter; tested in HEK293 cells; about a fifth of its hits are not listed in these tables; further: on the % scale 0 is the no-effect control and ±100 the full control effect; luciferase read-out
RE007 growth inh = less growth of the S. pombe RE007 Vpr strain; Potency, µM (highest dose often 92.2 µM), without a hit: at the top dose activity change, negative = less growth; S. pombe RE007 Vpr strain, BacTiter-Glo ATP luminescence, 24 h; control for the full effect not named in the record; actives 0.21% (n = 360,000); active = well fitted falling curve with a large enough effect; inconclusive = small, poorly fitted or top-dose-only effect; inactive = no such curve, though single readings can be large or run the other way;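 further: on the % scale 0 is the no-effect control and ±100 the full control effect; nearly all actives have a fitted effect of over 50% in size; the assay follows cell death caused by Vpr and the record does not say whether a fall means rescue or toxicity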
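Fission yeast RE007 carrying one integrated HIV-1 vpr copy, seeded at OD 0.01 in PMG+AL medium with 23 nL pinned compound. Grown 24 h at 30 degrees; viability read by BacTiter-Glo luminescence after 5 min.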
NS1 inh = influenza NS1 inhibition. S. cerevisiae slowed by influenza A NS1, growth recovery by OD600. Potency, µM (titrated, usually from 46.1 µM), without a hit: top-dose activity, positive = more growth. actives 0.4% (n = 270,000). AID 2326; active means well fitted rising curve with a large enough effect; inconclusive means small, poorly fitted or top-dose-only effect; inactive means no such curve, though single readings can be large or run the other way; further: nearly all actives have a fitted effect of over 50% in size
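Recovery from NS1-induced slow growth read by OD600 in budding yeast switched to galactose assay medium (pH 6.0, -URA) at 1:100 dilution. Compound 23 nl per well; the matching strain lacking NS1 serves as control.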
Cruzain noTriton = blocks cruzain activity in detergent-free assay. P25779. purified cruzain, Z-FR-AMC fluorescence, no detergent. Potency, µM, without a hit: max response, negative = inhibition, usual class: inhibitors. actives 2.3% (n = 200,000). AID 1476;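 further: plate controls were enzyme without inhibitor for no effect and buffer without enzyme for full effect; nearly all actives have a fitted effect of over 40% in size; top concentration of the series not given in the record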
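Detergent-free condition (0.00005% Triton X-100) in acetate buffer pH 5.5 with DTT. 1.5 nM enzyme and compound were pre-mixed 15 min, then 2 uM Z-FR-AMC substrate added; reaction progress from fluorescence change between first and third reads (60 s).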
LASV entry inh = blocks Lassa virus binding to or entry into cells; Lassa virus pseudotype entry inhibition, cell reporter; control for the full effect not named in the record; Potency, µM (series often up to 37.9 µM), for inactives: top-dose activity change, negative = inhibition, usual class: inhibitors; actives 1.2% (n = 300,000); AID 540256; active means well fitted inhibition curve with a large enough effect; inconclusive means small, poorly fitted or top-dose-only effect, or effect the other way; inactive means flat fitted curve, though single readings scatter; tested in HEK293 cells; further: on the % scale 0 is the no-effect control and ±100 the full control effect; nearly all actives have a fitted effect of over 50% in size; luciferase read-out
Starred values were filed as active, the others as inactive; u = inconclusive; x = not tested or not shown; ! = not active in a repeat; [ ] = dose if it differs, or a comment. Unless noted, the call rests on the fitted dose curve; in most records, active means well fitted curve in the direction sought with a large enough effect; inconclusive means small, poorly fitted or top-dose-only effect, or another doubt; inactive means no such curve, though single readings can be large; an effect the other way counts as inactive or inconclusive. Potency means the concentration at half of the fitted maximal effect.

SMILES | Cruzain Triton | NS1 inh | 2A StopGo | Cruzain noTriton | SARS PLP yeast | RE007 growth inh | MARV entry inh | LASV entry inh
O=C(NN=Cc1ccccc1)c1ccccc1 | x | x | 12% | x | x | -16% | u | u
O=C(NCc1ccco1)c1cc2c(s1)CSC2 | -16% | -4% | -29% | -22% | -9% | -7% | -9% | -2%
CCOC(=O)c1ccccc1NC(=O)N(C)CCc1c(C)nn(CC)c1C | -1.9% | x | 0% | 16% | x | x | x | 12%[46.1 µM]
CCCC(C(=O)NCC1CCCO1)N(Cc1ccco1)C(=O)CNS(=O)(=O)c1ccccc1 (stereo not given) | 3.2% | -1% | -13% | 14% | 1% | 0% | 2% | 9%
COc1ccc(Cl)cc1C(=O)NCC(c1ccco1)N(C)C (stereo not given) | x | -3% | 16% | x | -1% | 5% | -1%[46.1 µM] | 8%
Cc1cc(C)nc(N2CCCC(C(=O)NCc3ccccc3F)C2)n1 (stereo not given) | x | 2% | 2% | x | -1% | 12% | x | x
CCOC(=O)c1cc(CC)sc1/N=C/C1C(=O)CC(C)(C)CC1=O | -3.2% | -4% | -6% | 0% | 17% | -1% | 27% | -1%
CCc1ccc(S(=O)(=O)Nc2cc3c(cc2N2CCCCC2)n(C)c(=O)c(=O)n3C)cc1 | x | 2.8µM* | 3% | x | -4% | 23% | x | x
CCc1ccccc1NC(=O)COc1cccc(-n2cnnn2)c1 | x | 18% | 9% | x | -1% | 13% | 9%[46.1 µM] | 0%[46.1 µM]
CCOC(=O)CC1(C)SC(NC(C)=O)=NN1C(C)=O (stereo not given) | x | -65% | 3% | x | -7% | 0% | x | x
N#CC1=C(N)NC(SCC(=O)Nc2ccc(Br)cc2)=C(C#N)C12CCCCC2 | -6.8% | 12% | u | -24% | -6% | 13% | u | u
CCSC1=NCCN1C(=O)Cc1ccc(-c2ccccc2)cc1 | x | x | -20% | x | 0% | u | -7%[46.1 µM] | 1%
Cc1cc(NC(c2nnc(-c3ccccc3)o2)c2ccccc2F)ccc1Br (stereo not given) | -0.2% | x | -13% | -2% | x | x | u | u
Cc1cccc(CSc2ncc(Cl)c(C(=O)Nc3nnc(C)s3)n2)c1 | -7.6% | x | 12% | -5% | x | x | -14%[46.1 µM] | 20%[46.1 µM]
O=C(CCSCCC(=O)NN=Cc1ccccc1)NN=Cc1ccccc1 | x | x | 14% | x | x | -27% | 2%[46.1 µM] | -2%[46.1 µM]
COc1cc(OC)c(NC(=O)Cn2cnc3nc4c(cc3c2=O)CCCC4)cc1Cl | -0.3% | x | -6% | 5% | x | x | x | 3%[46.1 µM]
C=CCN(c1cccc(C(F)(F)F)c1)S(=O)(=O)c1cccc(C(=O)OCC(=O)NC(N)=O)c1 | -7.3% | 19% | u | 26% | 12% | 4% | -5% | 1%
CCN(CC)c1ccc(/C=N/NC(=O)c2ccccn2)cc1 | x | -7% | -10% | x | -2% | 12% | u | 11µM*
COc1ccc(-c2coc3cc(OC4OC(CO)C(O)C(O)C4O)ccc3c2=O)cc1 (stereo not given) | x | 1% | 69%[activator] | x | 0% | 16% | x | x
COc1cc(-n2c(=O)c3ccccc3n(CC(=O)c3ccc(F)cc3)c2=O)cc(OC)c1OC | x | x | -18% | x | 5% | 5% | u | 2%
CCCCNC(=O)Nc1ccc(C(O)(C(=O)OC)C(F)(F)F)cc1 (stereo not given) | -5.8% | -2% | 48%[activator] | 0% | 8% | 2% | u | -27%
COc1ccc2cc(CCNC(=O)c3ccc4c(c3)OCO4)c(=O)[nH]c2c1 | -4.3% | -28% | -28% | 4% | 1% | -3% | x | x
COCCn1c(=O)[nH]c2cc(C(=O)N3CCN(c4ccc(Cl)cc4)CC3)ccc2c1=O | -1.8% | 20% | 16µM*! | 2% | 1% | 21% | u | 21%[46.1 µM]
Cc1ccc(C)c2c1cc(C)c1nnc(SCC(=O)Nc3cccc(C(=O)O)c3)n12 | x | 0% | 16% | x | -5% | -22% | 5%[46.1 µM] | -22%[46.1 µM]
CC(NC(=O)c1ccc(OC2CCN(Cc3ccccn3)CC2)cc1)c1nccs1 (stereo not given) | x | 6% | -21% | x | 4% | 23% | u | -8%

SMILES | Cruzain Triton | NS1 inh | 2A StopGo | Cruzain noTriton | SARS PLP yeast | RE007 growth inh | MARV entry inh | LASV entry inh
Cc1csc(NC(=O)CSc2nnc(Cn3c(=O)sc4ccccc43)n2-c2ccccc2)n1 | -2.8% | 5% | -1% | u | -5% | -1% | x | x
O=C(COC(=O)CN1C(=O)NC2(CCCC2)C1=O)NCc1ccc(Cl)cc1Cl | x | x | -6% | x | 3% | 1% | 0% | 6%
Cc1ccc(C(=O)OCC(=O)N2CCC(C)CC2)cc1S(=O)(=O)N1CCCCC1 | x | 3% | -23% | x | 4% | -8% | -28% | -1%
CC(=O)c1c(C(C)=O)c(C)n(NC(=O)c2ccccc2Cl)c1C | 1.4% | 36% | 0% | 5% | u | -1% | 29% | -9%
Cc1ccc(CCNS(=O)(=O)c2ccc3c(c2)CCN3C(=O)CCC(=O)O)cc1 | 2.1% | x | 17% | u | x | x | 15%[46.1 µM] | 3%[46.1 µM]
CCOC(=O)C(=CNNc1cccc(Cl)c1)C(=O)OCC | x | -75% | 2% | x | -5% | 78% | u | 14%
CC(=O)N1CCc2c(sc(NC(=O)CSc3ccccc3)c2-c2nc3ccccc3s2)C1 | -2.2% | x | -10% | 6% | x | x | x | -18%[46.1 µM]
CCc1ccccc1NC(=O)c1ccc2c(c1)nnn2C1CCCC1 | -4.6% | x | -8% | -27% | x | x | x | 1%[46.1 µM]
COCc1c(C(=O)N2CCc3ccccc32)oc2ccccc12 | x | -22% | 3% | x | -34% | 19% | u | 2%[46.1 µM]
O=C(CN1CCN(C(=O)C2COc3ccccc3O2)CC1)Nc1ccccc1 (stereo not given) | x | -3% | -12% | x | 2% | -18% | -1% | x
COCCN(CC(=O)NCC1CCCO1)C(=O)CCC(=O)Nc1cc(C)on1 (stereo not given) | 3.5% | 3% | 1% | -12% | -3% | -7% | 8% | 1%
NS(=O)(=O)c1ccc(CCNS(=O)(=O)c2cccs2)cc1 | x | 20% | -4% | x | 3% | 20% | -7% | -15%
O=C(NCc1cc([N+](=O)[O-])ccc1O)c1cccnc1Sc1ccccc1Cl | x | 6% | -16% | x | u | 11% | x | x
Cc1ccc(NC(=O)C(C)OC(=O)Cc2c[nH]c3ccccc23)cc1 (stereo not given) | x | x | -23% | x | -4% | 9% | -2%[46.1 µM] | -6%
Cc1nc(-c2cccnc2)sc1C(=O)Nc1ccc(Cl)cc1 | -6.7% | -19% | -10% | 8% | -7% | -11% | 7% | 0%
CCCN1C(=O)C(O)(C/C(C)=N/O)c2ccccc21 (stereo not given) | 6.2% | -3% | -9% | -2% | 4% | -2% | 5% | 3%
O=C(CNS(=O)(=O)c1c(Cl)cccc1Cl)N1CCCCCC1 | x | 8% | 23% | x | 7% | -5% | x | x
COc1ccc(-n2nc(C(=O)O)c(=O)n(C)c2=O)cc1 | -2.1% | x | -16% | 9% | x | x | 7%[46.1 µM] | 10%[46.1 µM]
Cc1ccc(NC(=O)Nc2cccs2)cc1 | -4.2% | 3% | 50%[activator] | -8% | -13% | u | u | u
COc1ccc(OC)c(S(=O)(=O)Nc2ccc(O)c(Sc3ncn[nH]3)c2)c1 | 4.9% | 1% | 61%[activator] | -17% | 4% | -3% | 9% | -41%[14.3 µM]
CN(CC(=O)NCCc1ccc(S(N)(=O)=O)cc1)S(=O)(=O)c1cccc2nsnc12 | x | 12% | 28% | x | 1% | 10% | x | x
O=C(CSC1=Nc2ccccc2N=C(c2ccc(F)cc2)C1)NCc1ccccc1Cl | -3.2% | x | u | 9% | x | x | x | -21%[46.1 µM]
Cc1ccc(S(=O)(=O)c2c(C)nn(C(C)(C)C)c2OC(=O)c2ccc(Br)o2)cc1 | 1.5% | -72% | u | -1% | -16% | 5% | u | 11µM*
Cc1cc(C)n(-c2ccc(NC(=O)C3CCN(Cc4cnc(C)s4)CC3)cc2)n1 | x | 1% | -28% | x | 19% | -3% | -4% | -4%
CCC(C(=O)NCc1ccco1)N(Cc1cccs1)C(=O)CNS(=O)(=O)c1ccccc1 (stereo not given) | -1.9% | -2% | 8% | -5% | 3% | -19%[3.69 µM] | 0% | 5%

SMILES | Cruzain Triton | NS1 inh | 2A StopGo | Cruzain noTriton | SARS PLP yeast | RE007 growth inh | MARV entry inh | LASV entry inh
CN(C)CCNC(=O)c1cccn(Cc2cc(C(F)(F)F)cc(C(F)(F)F)c2)c1=O | x | 8% | -14% | x | -3% | 13% | u | -23%
CCOC(=O)c1cnc(SCC(=O)NCc2cccs2)nc1N | 6.8% | -4% | x | -2% | 4% | -1% | 12% | 22%
COc1ccc(OC)c(N2C(=O)NC(=O)C(CCc3ccncc3)(CCc3ccncc3)C2=O)c1 | -2.2% | -9% | x | 12% | 4% | 8% | -22% | 6%
O=C(CC(CC(=O)c1ccccc1)c1ccccc1)c1ccccc1 | x | -7% | 22% | x | -1% | -8% | x | x
O=C(c1ccccc1)N1CCCC(C(=O)N2CCCCCC2)C1 (stereo not given) | 4.4% | -2% | 0% | -8% | -2% | 11% | 5% | 7%
CCN(CC)S(=O)(=O)c1cccc(NC(=O)CSc2nnc(N)s2)c1 | x | x | -28% | x | 1% | -9% | 5%[46.1 µM] | 1%
Cc1ccc(SCc2[nH]nc3c2C2(CCSCC2)C(C#N)=C(N)O3)cc1 | -15% | 25% | x | -27% | 0% | -2% | 3% | -13%
CCOC(=O)c1c(C)[nH]c(C)c1S(=O)(=O)NCc1ccc(OCC)cc1 | x | 7% | 59%[activator] | x | 3% | -5% | x | x
O=C(CCC(=O)N1CCSc2ccccc21)NCc1ccc(Cl)cc1 | x | -3% | 0% | x | -7% | -3% | x | x
Cc1noc(C)c1S(=O)(=O)N1CCCCC1 | 6.9% | 4% | x | 0% | 8% | 12% | -3% | 16%
Clc1ccc2[nH]c3c(NCC4CCCO4)ncnc3c2c1 (stereo not given) | u | -16% | x | 20µM* | -6% | x | 0% | x
